Screening results: PubChem, several laboratories
YopH PTP inh: inhibitors of Yersinia enterocolitica YopH tyrosine phosphatase. fluorescence Ex485/Em525. inhibition, %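 (about 10 µM by stock and volumes)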. actives 0.16% (n = 140,000);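 active = inhibition of 50% or more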;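 also: controls were vehicle for no effect and minimum signal wells for full effect; inactives centre near -20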
Mtb H37Rv: M. tuberculosis H37Rv growth inhibitors, H37Rv strain (AID 1626) | M. tuberculosis H37Rv growth inhibition; higher % means a stronger effect | inhibition, % at 10 µM; hits with a dose series show IC50 in µM | actives 0.95% (n = 220,000);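 active = confirmed in a dose series; inconclusive = inhibition above 80% but not taken into the dose series; inactive = below 80% or under 30% at every dose of the series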;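 also: bacteria incubated seven days before Alamar blue readout; 0% = bacteria only wells and 100% = bacteria with antibiotic wells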
Mtb betalactam: beta-lactam sensitization of Mtb H37Rv. inhibition, % at 25 µM. actives 0.27% (n = 330,000). M. tuberculosis H37Rv growth with meropenem, percent inhibition; hits of this screen are not shown here;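 active = about 74% or more and at least 40 points above the plate without the antibiotic, then above 30% in a dose series; inconclusive = first-round hits that could not be retested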;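 also: growth measured after seven days incubation then overnight dye step; 0% = bacteria only wells and 100% = bacteria with antibiotic; twin plates without the antibiotic show which effects depend on it; some results filed as inactive read as strong as hits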
RecA splice inh: Mtb RecA intein splicing inhibition | AID 2221 | cell-free RecA intein splicing, fluorescence | P9WHJ3 | inhibition, %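 (about 9 µM by stock and volumes)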 | actives 0.75% (n = 290,000); in the data active = inhibition above about 30%; inconclusive = no clear call, values can overlap the other calls;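 also: 0% = vehicle wells and 100% = reference inhibitor control wells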
Target sequence (P9WHJ3 whole entry, looked up, canonical isoform): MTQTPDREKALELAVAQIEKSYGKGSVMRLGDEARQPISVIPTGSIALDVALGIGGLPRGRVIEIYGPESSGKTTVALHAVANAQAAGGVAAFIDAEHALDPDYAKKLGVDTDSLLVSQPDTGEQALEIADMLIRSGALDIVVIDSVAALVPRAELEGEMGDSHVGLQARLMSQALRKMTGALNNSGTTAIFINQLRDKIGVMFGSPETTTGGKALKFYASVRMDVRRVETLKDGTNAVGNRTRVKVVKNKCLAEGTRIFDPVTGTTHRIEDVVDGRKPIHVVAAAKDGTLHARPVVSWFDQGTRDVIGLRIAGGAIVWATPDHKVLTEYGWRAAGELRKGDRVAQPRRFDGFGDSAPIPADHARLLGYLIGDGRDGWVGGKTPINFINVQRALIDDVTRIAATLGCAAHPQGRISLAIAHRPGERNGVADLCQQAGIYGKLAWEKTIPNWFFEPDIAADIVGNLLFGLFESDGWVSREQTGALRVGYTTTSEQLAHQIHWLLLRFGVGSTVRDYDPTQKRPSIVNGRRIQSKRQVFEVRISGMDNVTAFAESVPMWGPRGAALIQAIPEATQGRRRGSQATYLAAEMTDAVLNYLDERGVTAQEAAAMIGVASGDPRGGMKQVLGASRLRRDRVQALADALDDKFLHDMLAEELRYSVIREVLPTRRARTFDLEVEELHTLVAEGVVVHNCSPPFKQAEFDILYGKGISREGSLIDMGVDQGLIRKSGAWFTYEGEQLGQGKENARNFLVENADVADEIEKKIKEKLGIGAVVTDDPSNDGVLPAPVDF
Arbovirus anti: antivirals against arbovirus infection; arbovirus infection cell-based antiviral screen; inhibition, % at 10 µM; actives 0.37% (n = 200,000);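 active = inhibition from about 30%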;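 also: bluetongue infection of BSR cells; cell survival read as ATP light after 72 h; 0% = infected wells without compound and 100% = uninfected wells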
Arbovirus anti repeat: second read-out of Arbovirus anti, no call of its own (marks repeat the call); inhibition, %; measured here: 10K subset replicate screen; many hits read low in the repeat;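 first of two repeat runs on a subset; 0% = infected and 100% = uninfected wells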
Starred values were filed as active, the others as inactive; ? = inconclusive; nt = not tested or not shown; & = joins results of further samples. This is a subset; count on the stated rates, not on these rows.

SMILES	YopH PTP inh	Mtb H37Rv	Mtb betalactam	RecA splice inh	Arbovirus anti	others
CN1CCN(c2ccc(-c3cccc(NC(=O)COc4ccc(Cl)cc4)c3)nn2)CC1	nt	nt	3	-1.0	nt
CCOC(=O)c1cc(-c2cccs2)nc2onc(C)c12	-5	36%	6	-19	4
CCC(=O)Nc1nc(C)c(-c2csc(Nc3cccc(O)c3)n2)s1	nt	nt	38	8.7	nt
CN(CCC#N)C(=O)COC(=O)c1ccc(Cl)c(S(N)(=O)=O)c1	-53	-12%	0	-1.5	8
Cc1cc(C(=O)N2CCOCC2)c(C)o1	nt	-5%	2	-0.2	-1
COc1ccc(C(=O)N2CCc3cc(OC)c(OC)cc3C2c2ccc(OC)c(OC)c2)cc1 (centres undefined)	nt	nt	3	-2.7	nt
COCCN(C(=O)C1CCCC1)c1c(N)n(Cc2ccccc2)c(=O)[nH]c1=O	nt	1%	-8	-0.9	1
CCN(C1CCCCC1)S(=O)(=O)c1ccc(-n2cnnn2)c(C)c1	nt	nt	-6	-2.3	nt
CN[C@H](CC(=O)O)C(=O)O	nt	-4%	-2	4.0	nt
Cc1cccc(OC(=O)c2cccnc2)c1	nt	nt	5	-1.5	nt
COc1ccc(Oc2c(-c3ccc(O)cc3O)n[nH]c2C)cc1	-54	0%	2	0.9	-11
O=C(NCC1COc2ccccc2O1)c1ccc(Cl)cc1 (centres undefined)	-40	8%	-9	1.5	-13
CSc1nncc(/C(C)=N\Nc2ccccc2C)n1	-22	0%	12	1.0	5
CCn1cc(C(=O)N[C@H](C)c2ccccc2)c(=O)c2cc(F)c(N3CCN(C)CC3)cc21	21	9%	-6	-1.3	-31
Cc1nccc(-c2cccc(N/N=C(\C#N)C(=O)c3ccccc3)c2)n1	nt	52%	70	1.5	nt
COc1ccc(NC(=O)/C(C#N)=C/c2cc(C)n(-c3ccc(N4CCOCC4)c([N+](=O)[O-])c3)c2C)cc1	-17	0%	11	-0.4	-10
Cc1ccc(C(=O)N2CCN(S(=O)(=O)N3CCCCC3)CC2)cc1	nt	nt	-4	5.0	nt
CCOC(=O)c1cccc(NS(=O)(=O)c2ccc(NC(C)=O)cc2)c1	-26	-2%	-8	-0.6	18
C/C(=N/NC(=O)CNC(=O)COc1cccc(C)c1)c1ccc(Cl)cc1	nt	nt	-2	1.4	nt
O=C(CSC1=NCCS1)Nc1ccc(S(=O)(=O)NC2CCCCC2)cc1	-2	-2%	nt	42*	13
O=[N+]([O-])c1ccc(NC(=S)NCc2ccncc2)cc1	nt	9%	4	4.5	15
COc1ccc(C2=NC(C)(C)Cc3cc(OC)c(OC)cc32)cc1	nt	nt	-5	-10	nt
O=C(NCc1ccco1)c1ccc(S(=O)(=O)N2CCCc3ccccc32)cc1	-8	1%	-7	9.7	-8
O=C(O)CCn1cc(C(=O)O)c(-c2ccccc2)n1	nt	-1%	5	0.8	nt
O=C1N[C@H](C(=O)O)CS1	nt	-15%	-10	-1.2	nt
COCCNC(=O)COc1ccc(Nc2ccccc2)cc1	-32	2%	?	-4.3	-8
CN1C(=O)c2ccc(NC(=O)c3ccc(Cl)cc3Cl)cc2C1=O	nt	nt	-5	-4.4	nt
CCN1C(=O)N[C@@H](CCc2ccccc2)[C@H](C(=O)OC)[C@H]1C	nt	-16%	-13	1.9	nt
Cc1cc(C)n(C(=O)COc2ccccc2[N+](=O)[O-])n1	nt	-2%	-4	2.1	nt
Cc1ccc(N(Cc2ccccc2)C(=O)c2cccc(F)c2)cc1	nt	nt	-2	11	nt
COc1ccc2c(Cl)c(-c3nnco3)sc2c1	-7	1%	8	0.0	-5
COc1ccc(S(=O)(=O)NCc2ccc(C(=O)NCCCN3CCCC(C)C3)cc2)cc1 (centres undefined)	nt	nt	-4	-1.5	nt
CC1Cc2ccccc2N1C(=O)CCNS(=O)(=O)c1ccc2c(c1)CCC(=O)N2 (centres undefined)	-20	-11%	-6	-0.7	-4
COc1ccc(N2CCN(C(=O)[C@@H](NC(=O)c3cc(OC)cc(OC)c3)C(C)C)CC2)cc1	nt	nt	-5	-3.8	nt
Cc1ccc(NC(=S)N(CCN(C)C)Cc2cc3cc(C)cc(C)c3[nH]c2=O)cc1	-9	10%	2	-2.0	20
Cc1ccc([C@@H]2[C@@H]3C(=O)N(C)C(=O)[C@@H]3[C@]3(C)C(=O)N(Cc4ccc(-c5ccccc5)cc4)CC(=O)N23)o1	nt	nt	1	-0.4	nt
CCOC(=O)c1ccccc1NCN1C(=O)CSC1=O	-43	-7%	-3	3.0	5
CSc1ncccc1C(=O)OCC(=O)c1ccc(Br)s1	nt	6%	8	-3.3	6
CN(C)/C=C/C(=O)c1ccc2noc(-c3ccc(F)cc3)c2c1	nt	nt	5	31*	nt
Cc1cccc(C)c1OCc1nnc(SCC(=O)Nc2cccc(C(=O)N3CCOCC3)c2)n1C	-11	4%	5	0.5	3
COc1ccccc1N(C)S(=O)(=O)c1ccc(Cl)c(C(=O)NCc2cccnc2)c1	nt	nt	4	0.6	nt
Cc1c(C)c2ccc(OCC(=O)NCCCn3ccnc3)c(C)c2oc1=O	nt	nt	3	-3.7	nt
COC(=O)c1cc(Cl)c(NC(=O)c2ccco2)cc1OC	-33	-3%	-5	-0.9	-15
CC(=O)N(C(C)=O)N1C(=O)c2cccc3c(N4CCOCC4)ccc(c23)C1=O	nt	-4%	9	-9.0	17
O=C(CC(C(=O)O)c1ccccc1)Nc1ccccc1 (centres undefined)	10	-5%	1	1.7	-1
Cc1ccc(C)c(NC(=O)CS(=O)(=O)c2cccc3nsnc23)c1	nt	0%	-3	-0.2	8
CS(=O)(=O)c1nc(S(=O)(=O)c2ccc(Cl)cc2)c(N2CCC3(CC2)OCCO3)s1	nt	nt	-2	2.8	nt
CCOC(=O)Cc1nnc(NC(=O)c2ccccc2OCC)s1	-20	6%	14	1.6	78*	Arbovirus anti repeat=-3.6*
COc1ccc(Cl)cc1NC(=O)CNc1ccccc1N1CCOCC1	nt	-8%	1	nt	-1
O=S(=O)(c1ccc(Cl)c2ccccc12)N1CCCC1	nt	1%	17	3.0	-7

Entries above that have a thiophene ring, fused or not:
SMILES	YopH PTP inh	Mtb H37Rv	Mtb betalactam	RecA splice inh	Arbovirus anti	others
CCOC(=O)c1cc(-c2cccs2)nc2onc(C)c12	-5	36%	6	-19	4
COc1ccc2c(Cl)c(-c3nnco3)sc2c1	-7	1%	8	0.0	-5
CSc1ncccc1C(=O)OCC(=O)c1ccc(Br)s1	nt	6%	8	-3.3	6

The list goes on:
SMILES	YopH PTP inh	Mtb H37Rv	Mtb betalactam	RecA splice inh	Arbovirus anti	others
c1ccc2c(NCC3CCCO3)nc(N3CCOCC3)nc2c1 (centres undefined)	nt	-4%	-6	nt	-4
COCc1c(Br)c(C)nc2sc3c(=O)[nH]nnc3c12	nt	nt	-2	-1.9	nt
CC(C)c1ccc(N2C(=NC(=O)C3CC3)SC3CS(=O)(=O)CC32)cc1 (centres undefined)	nt	nt	-4	-4.0	nt
O=C(CN(c1ccccc1)S(=O)(=O)c1ccccc1[N+](=O)[O-])Nc1ccccc1C(=O)N1CCOCC1	nt	-1%	-13	-1.1	2
COc1cc(OC)nc(NC(=O)NS(=O)(=O)c2ccc(OC(F)(F)F)cc2)n1	-38	1%	-8	-1.0	1
Cc1cc(C)nc(Nc2nc(=O)c3ccccc3s2)n1	-40	-3%	-9	-0.1	-16
COc1ccc(C(C(=O)NCc2ccccc2)N(Cc2cccs2)C(=O)c2cnccn2)cc1 (centres undefined)	-24	-5%	2	-1.9	-6
COc1cccc(CN(C)C(=O)Cc2c[nH]c3ccccc23)c1	nt	nt	-1	1.7	nt
CC(=O)Nc1nc2c(ccc3ccccc32)s1	nt	nt	0	0.3	nt
CN(C)CCCNC(=O)N1c2ccccc2C=Cc2ccccc21	nt	nt	-10	0.0	nt
COC(=O)C1=C(N)Oc2cc(C)n(C)c(=O)c2C1c1ccc(Cl)c(Cl)c1 (centres undefined)	-37	6%	-5	-1.2	-1
O=c1oc2ccc3ccccc3c2cc1-c1nc2ccccc2o1	-34	2.8µM*	99	-137	nt
O=C(NCC(c1cccnc1)N1CCOCC1)C1CCCCC1 (centres undefined)	4	-6%	-3	1.2	6
Cc1ccc(S(=O)(=O)N2CCOCC2)cc1NC(=O)Cn1cc(C(F)(F)F)cc(Cl)c1=O	-3	-2%	3	0.0	7
COc1ccc(NC(C)=O)cc1CNC(=O)CN1CCOCC1	nt	nt	-3	-0.5	nt
COc1ccccc1NS(=O)(=O)c1cccc(NC(=O)c2nc3nc(C)cc(C)n3n2)c1	-22	1%	-5	2.1	10
O=C(c1ccccc1)[C@H]1[C@H](c2ccccc2)[C@@]2(N=C(c3ccccc3)OC2=O)C2c3ccccc3C=NN21 (some centres undefined)	-79	7%	87	0.0	-2
Cc1ccnc(NC(=O)c2sc3cc(Cl)ccc3c2Cl)c1	-30	2%	-3	0.3	-4
CC(C)CCN1C(=O)c2ccc(-c3nc4ccccc4c(=O)o3)cc2C1=O	-2	5.3µM*	99	-3.2	8
CC1CN(C(=O)COC(=O)c2ccc(Cl)c(S(=O)(=O)N3CCCCC3)c2)CC(C)O1 (centres undefined)	nt	2%	-5	0.1	2
N#CC1=C(N)Oc2cc(O)ccc2C1c1ccc(Br)s1 (centres undefined)	nt	nt	-7	-2.4	nt
O=C(CSc1nnc(NC2CCCCC2)s1)Nc1ccc2c(c1)C(=O)c1ccccc1C2=O	nt	45%	4	4.4	-9
Cc1cnc(NC(=O)CSc2nc3ccccc3c(=O)[nH]2)s1	-3	-4%	-3	-2.9	2
CCOC(=O)C(=NC1CCS(=O)(=O)C1)NNc1ccc(Br)cc1 (centres undefined)	nt	?	98	-4.2	-37
CCNC(=S)N=Nc1c(O)n(Cc2ccc(Cl)cc2)c2ccccc12	-26	8%	-4	0.4	-8
COc1ccc(OC(=O)c2c(C)nn(-c3ccccc3)c2C)cc1	nt	-12%	19	13	nt
Cc1cc2c3c(c1)C1(C(=O)N3C(C)(C)CC2C)C(C#N)=C(N)Oc2n[nH]c(C)c21 (centres undefined)	29	0%	13	7.9	-12
CC(c1ccco1)N(C(=O)COc1ccc(Cl)cc1Cl)c1ccccn1 (centres undefined)	-15	2%	9	8.2	-3	Arbovirus anti repeat=-1
COc1cccc(CNCCO)c1OCc1ccccc1Cl	-36	4%	-1	0.2	0
CCN(Cc1ccccc1)CC(O)COC(c1ccc(OC)cc1)c1ccc(OC)cc1 (centres undefined)	nt	nt	69	-0.4	nt
N#Cc1cccc(N=c2ssnc2Cl)c1	nt	1%	nt	4.2	3
CS(=O)(=O)N1CCN(C(=O)C(Sc2ccccc2)c2ccccc2)CC1 (centres undefined)	-9	7%	-3	1.7	7
CC(=O)Nc1ccc(S(=O)(=O)NCCNS(=O)(=O)c2ccc(NC(C)=O)cc2)cc1	nt	nt	-3	0.8	nt
Cc1nc(-c2ccc(NS(=O)(=O)c3ccccc3)cc2)cs1	nt	0%	-1	4.0	-3
CC1CCC(=O)N(CCOc2ccccc2)CC1 (centres undefined)	nt	nt	-14	-2.7	nt
COc1ccc(CNCC(=O)Nc2sccc2C#N)cc1	nt	1%	-3	8.2	-2
Cc1ccc(N2CCN(S(=O)(=O)N3CCCCC3)CC2)cc1Cl	-20	-3%	6	-4.6	4
Oc1c(C=C2N=c3ccccc3=N2)sc(=S)n1C1CCCCC1	-24&-21	1%&5%	2&-1	-1.2&-1.0	14&3
COCCN1CCN(Cc2nc(C3(c4ccc(C)cc4)CCCC3)no2)CC1	nt	4%	-8	3.3	-1
CN1C(=O)C(=Cc2ccccc2OS(=O)(=O)c2ccccc2)C(=O)N(C)C1=O	nt	nt	-6	-3.4	nt
N=C(SC1CC(=O)N(c2ccc(F)cc2)C1=O)N1N=C(c2ccccc2)CC1c1ccccc1 (centres undefined)	nt	45%	-8	-1.5	-12
COc1ccc(NC(=O)NS(=O)(=O)c2ccc(C)cc2)c(OC)c1	-40	75%	78	nt	-12
COc1ccccc1CNC(=O)c1cc(-c2ccncc2)nc2c(Cl)cccc12	nt	nt	-3	-0.8	nt
CN(C)c1ccc(C(=S)N2CCNCC2)cc1	-22	-8%	-4	-8.0	4
C#CCN(C(=O)c1ccc(OC2CCN(C(=O)CCOC)CC2)cc1)C1CCCCC1	nt	nt	2	3.2	nt
Cn1c(CN2CCC(C(N)=O)CC2)c(C#N)c2ccccc21	-28	-7%	?	1.1	1
O=C(Nc1ccc(Cl)c(Cl)c1)c1ccccc1NC(=O)C1CC=CCC1C(=O)O (centres undefined)	nt	nt	11	0.5	nt
